# Screening results: PubChem BioAssay, National Center for Advancing Translational Sciences (NCATS)
# gsp antag – antagonists of gsp mutant (McCune-Albright syndrome). actives 0.4% (n = 340,000). Potency, µM (highest dose often 76.9 µM), inactives show at the highest dose activity change, negative = inhibition, actives largely listed as inhibitors. gsp-mutant cells, cAMP HTRF, 30 min; control for the full effect not named in the record. AID 624288; active = falling curve of any shape with a large fitted effect; inconclusive = falling curve, mostly with a smaller effect; inactive = flat or rising curve; cell line not stated here;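 note: intracellular cAMP measured with PDE inhibitor Ro 20-1724 present during compound exposure; potency is the fitted concentration of half-maximal effect; % is set by controls: 0 for no effect and ±100 for the full control effect; nearly all actives have a fitted effect of over 65% in size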
#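 Cells in G418 medium, seeded 16-24 h, 37C; buffer exchange to DPBS + 1 mM CaCl2, 0.5 mM MgCl2, 0.05% BSA; cpds in DMSO + […] (300 uM stock), 30 min 37C; HTRF cAMP detection.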
# TRPML1 inh – human mucolipin-1 channel inhibition. TRPML1-inducible cells, Ca2+ dye fluorescence, FDSS; hits give low values; inhibition of EC80 agonist-evoked calcium signal. activity change, negative = inhibition, % (concentration not given with the values). actives 0.02% (n = 390,000). AID 624415; in the data active means activity change below about -50%; inconclusive means about -30% to -50%; inactive means above about -30%;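 note: stimulus is agonist 54-4 at its EC80 concentration; % is set by controls: 0 for no effect and ±100 for the full control effect; compound concentration not given in the record; the text of the record puts the active cut at -80%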
# Target sequence (Q9GZU1 whole entry, looked up): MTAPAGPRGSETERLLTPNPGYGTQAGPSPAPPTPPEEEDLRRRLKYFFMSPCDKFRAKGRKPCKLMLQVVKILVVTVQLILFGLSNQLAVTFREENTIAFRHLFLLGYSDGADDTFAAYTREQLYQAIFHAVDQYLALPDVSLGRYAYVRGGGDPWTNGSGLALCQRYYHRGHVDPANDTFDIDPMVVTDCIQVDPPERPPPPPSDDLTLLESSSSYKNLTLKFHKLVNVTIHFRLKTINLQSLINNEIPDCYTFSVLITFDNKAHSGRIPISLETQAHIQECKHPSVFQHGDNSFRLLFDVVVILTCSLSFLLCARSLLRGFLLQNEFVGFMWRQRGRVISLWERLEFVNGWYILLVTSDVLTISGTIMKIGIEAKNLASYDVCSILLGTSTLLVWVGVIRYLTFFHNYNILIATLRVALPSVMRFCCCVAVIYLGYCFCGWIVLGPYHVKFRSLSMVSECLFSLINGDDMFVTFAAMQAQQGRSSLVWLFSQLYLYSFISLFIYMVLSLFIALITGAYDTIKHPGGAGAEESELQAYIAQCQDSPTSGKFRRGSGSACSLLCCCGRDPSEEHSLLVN
#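 Calcium fluorescence in TRPML1-DL cells induced overnight with Tet: a 110 s read after compound pin addition, then a 110 s antagonist read after challenge with 54-4 at 4 uM final (EC80).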
# ClpP mod – qHTS Assay for Activators of ClpP | AID 651965, 2013 | Potency, µM (series often up to 57.5 µM), for the others: at the top dose activity change, negative = active | purified B. subtilis ClpP, FRET peptide cleavage, 20 min | ATP-dependent Clp protease proteolytic subunit (Bacillus subtilis (strain 168)), P80244 | actives 1.9% (n = 340,000); active = well fitted falling curve with a large enough effect; inconclusive = small, poorly fitted or top-dose-only effect; inactive = no such curve, though single readings can be large or run the other way; note: potency is the fitted concentration of half-maximal effect; the source files actives as falling curves though it sought activators and does not explain the sign; nearly all actives have a fitted effect of over 65% in size; many hits overshoot -100%
# Target sequence (P80244 whole entry, looked up): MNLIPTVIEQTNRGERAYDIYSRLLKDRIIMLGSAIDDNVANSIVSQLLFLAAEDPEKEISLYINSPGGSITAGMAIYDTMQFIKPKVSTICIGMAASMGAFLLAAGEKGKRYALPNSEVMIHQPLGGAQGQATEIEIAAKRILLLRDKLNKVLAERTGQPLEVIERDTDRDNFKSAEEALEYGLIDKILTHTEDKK
#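 Purified B. subtilis ClpP, 10 microg/mL final in Tris/HCl pH8 with KCl, BSA, glycerol and Tween-20, cleaved an Abz/nitrotyrosine-quenched decapeptide. Fluorescence (ex 320, em 430) was read at 0 and 20 min at room temperature. Delta was normalized to 5.8 microM ADEP and DMSO/no-enzyme controls.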
# Menin-MLL FL inh – inhibitors of human menin-MLL interaction, wild-type MLL peptide; Fluorescence polarization, fluorescein-MLL peptide displacement from menin; FP activity change, % at 61.4 µM; 290,000 tested, under 10 active; inconclusive = falling polarisation curve, or a change in total fluorescence; inactive = total fluorescence flat and polarisation flat or rising; no compound was filed as active; the % refers to the polarisation; negative = inhibition;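 note: % of control where 0% means no effect; inhibitors lower the polarisation; unlabelled MLL peptide was the positive control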
# gsp agonist – gsp mutant agonism; gsp mutant cells, cAMP HTRF, 30 min; control for the full effect not named in the record; Potency, µM (top dose mostly 76.9 µM), without a hit: top-dose activation (cAMP increase), hits mostly activators; actives 0.13% (n = 340,000); AID 624287; active = well fitted activation curve with a large enough effect; inconclusive = small, poorly fitted or top-dose-only effect, or another doubt; inactive = no such curve, though single readings can be large or run the other way; cell line not stated here;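 note: phosphodiesterase inhibitor Ro 20-1724 added with compounds to block cAMP breakdown; potency is the fitted concentration of half-maximal effect; nearly all actives have a fitted effect of over 60% in size; about a fifth of the inactives were tested at one dose only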
#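 Cells stably selected in G418 were plated at 2000/well, grown 16-24 hr, then given compounds in DMSO with the PDE inhibitor […] (300 uM solution added) for 30 min at 37C; cAMP was read by HTRF.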
# TRPML1 ag – activates the human TRPML1 channel; Q9GZU1; actives 0.12% (n = 410,000); activation, % (concentration not given with the values); TRPML1-expressing cells, Ca2+ dye fluorescence, FDSS; host cell line not named in the record; reference of the full effect not given here; in the data active = activation above about 50%; inconclusive = about 30% to 50%; inactive = below about 30%; note: 0% is about no effect; the text of the record puts the active cut at 80%
#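 Calcium fluorescence on an FDSS kinetic reader gave the read-out. Tet-induced TRPML1-DL cells were plated overnight, dye-loaded (Ca8 with quencher, 45-90 min, room temperature, dark), then read 110 s after compound addition, and again 110 s after 4uM final 54-4 (EC80).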
# Starred values were filed as active, the others as inactive; ? = inconclusive; / = not tested or not shown; [ ] = remark or other dose.
SMILES,gsp antag,TRPML1 inh,ClpP mod,Menin-MLL FL inh,gsp agonist,TRPML1 ag
CCN(C[C@H]1N[C@@](Cc2ccccc2)(C(=O)OC)[C@H]2C(=O)N(Cc3ccccc3)C(=O)[C@@H]12)C(=O)Nc1ccc(C)cc1,-13%,7,-2.5%,/,/,2.3
COc1ccccc1NC(=O)CSc1nc(=O)n2cc(C)ccc2n1,15%,-8,-3.4%,/,18µM*,-0.7
CN(C)CCNC(=O)c1onc(CSc2ccc(F)c(F)c2)c1C(=O)NCCN(C)C,11%,-5,0.6%,1.5,/,0.0
CC(C)(C)n1nc2c(c1NC(=O)Cc1cccc3ccccc13)CS(=O)C2 (configuration not stated),2%,-7,0.6%,2.3,?,-0.8
O=C(NCC(=O)N1CCN(c2ccccc2F)CC1)c1ccc(Br)o1,2%,8,-4.7%,/,-1%,-0.2
O=c1[nH]c(-c2ccccc2Cl)nc2c1sc(=S)n2-c1ccccc1,?,-12,/,-0.3,-1%,-0.8
Cc1ccc(N2CCN(S(=O)(=O)c3ccc4c(c3)oc(=O)n4C)CC2C)cc1 (configuration not stated),4%,-6,2.1%,/,18%,-0.6
O=C(NNC(=O)c1cc2cc3ccccc3nc2s1)c1cccc(C(F)(F)F)c1,-1%,-6,?,0.1,?,0.8
O=C(O)c1ccc2[nH]c3c(c2c1)CCCC3,-9%,0,/,0.4,-21%,-0.2
COc1ccccc1NC(=O)C1CCN(C(=O)c2ccco2)CC1,-18%,-4,/,/,-14%[15.4 µM],0.8
CCN1CCN(c2nnc(-c3ccccc3)c3ccccc23)CC1,-3%,/,2.6%,-1.0,13%,/
COc1ccc(CC(=O)NNC(=O)COc2ccc(Br)cc2C)cc1OC,1%,25,-0.7%,0.8,4%,0.9
Cc1nn(-c2ccccc2)c(Oc2ccccc2)c1C=O,-21%,4,-4.8%,3.9,2%,1.5
O=C(NNc1ccc([N+](=O)[O-])cc1)C1CC1c1ccccc1 (configuration not stated),7%,-12,-0.9%,11,-16%,0.5
Cc1cc(C#N)c(C)n1-c1cc(C(F)(F)F)ccc1N1CCOCC1,?,47,0.4%,2.0,-10%,1.0
CS/C(N)=N/S(=O)(=O)c1ccc(NC(C)=O)cc1,6%,-5,0.3%,1.8,30%,-0.5
Cc1cc(-c2nnc(SCC(=O)Nc3c(C)cccc3C)n2N)n[nH]1,4%,-1,-0.2%,/,-26%,-0.7
CCOC(=O)N/N=C/c1ccc(F)cc1,8%,-2,-0.7%,4.2,-26%,-0.6
O=C(CN1CCN(c2ccccc2F)CC1)Nc1nnc(C(F)(F)F)s1,2%,-4,-0.5%,1.4,-1%,-0.1
O=C(NNC(=O)c1ccc(Br)s1)c1csc(N2CCOCC2)n1,-4%,-6,0.4%,/,-2%,-0.7
COc1ccccc1C(=O)N/C(=C/c1ccc(Br)cc1)C(=O)NCCCn1ccnc1,-17%,-5,-2.1%,/,5%,-0.5
COc1ccc(-c2nc(CS(=O)CC(=O)NC3CCCC(C)C3C)c(C)o2)cc1OC (configuration not stated),4%,18,4.3%,-2.9,0%,-0.8
CCCCn1c(N)c(N(CCOC)C(=O)c2cccc(-n3cnnn3)c2)c(=O)[nH]c1=O,3%,-5,1.2%,/,-7%[15.4 µM],0.9
CCOC(=O)c1c(C)[nH]c(N=Nc2cccc(C)c2)c1C,-2%,8,-0.9%,-2.1,9%,1.5

# 3 structures already listed, arranged by SMILES length, descending:
SMILES,gsp antag,TRPML1 inh,ClpP mod,Menin-MLL FL inh,gsp agonist,TRPML1 ag
O=C(CN1CCN(c2ccccc2F)CC1)Nc1nnc(C(F)(F)F)s1,2%,-4,-0.5%,1.4,-1%,-0.1
CCOC(=O)c1c(C)[nH]c(N=Nc2cccc(C)c2)c1C,-2%,8,-0.9%,-2.1,9%,1.5
CS/C(N)=N/S(=O)(=O)c1ccc(NC(C)=O)cc1,6%,-5,0.3%,1.8,30%,-0.5

# Continued:
SMILES,gsp antag,TRPML1 inh,ClpP mod,Menin-MLL FL inh,gsp agonist,TRPML1 ag
Cc1ccc(CSCCNC(=O)CN2C(=O)c3ccccc3S2(=O)=O)cc1,-9%,-11,-0.3%,0.3,-17%,1.1
C=CCC(=O)NC1CC(C)(C)Cc2c1cnn2-c1ccccc1C (configuration not stated),-1%,8,0.5%,0.1,5%[15.4 µM],-0.4
O=[N+]([O-])c1ccc2nc(SCc3cn4ccccc4n3)[nH]c2c1,-7%,6,-0.9%,-1.7,16%,1.6
CCOc1ccc(C(=O)Nc2cc(-c3nc4ccccc4[nH]3)ccc2C)cc1[N+](=O)[O-],-6%,-2,-2.0%,3.2,30%,1.2
COC(=O)CN1C(=O)C2(C(C#N)=C(N)Oc3cc(C)oc(=O)c32)c2ccccc21 (configuration not stated),7%,24,-2.2%,6.7,7%,1.7
O=C(CCN1CCc2ccccc2C(c2ccccc2)C1)c1ccc2c(c1)OCCO2 (configuration not stated),-4%,-5,2.5%,-0.8,-1%,1.9
CC1Nc2ncnc(N3CCc4ccccc4C3)c2N(Cc2ccccc2)C1=O (configuration not stated),/,0,0.6%,/,/,0.6
Cc1ccc2nc(NS(=O)(=O)c3cn(C)nc3C)sc2c1,-5%,-14,-0.5%,/,?,0.6
Cc1cc(=O)n(C)c(=O)n1CCCCCCOc1cccc([N+](=O)[O-])c1,-21%,-6,-2.2%,-0.7,5%,0.8
C[C@@H]1CN(Cc2nnnn2CC(=O)NCCCn2cccn2)C[C@H](C)O1,/,-11,2.8%,/,-157%[inhibitor],-0.7
CC(C)NC(=O)c1ccc(NC(=O)N2CCCCc3ccccc32)cc1,/,12,-0.3%,/,/,-0.3
COc1nc(NC2CCCCC2)nc(N2CCCCCC2)n1,-9%,9,0.6%,0.1,11%,0.5
COc1cccc(C=CC(=O)C=CC=Cc2ccccc2)c1,-7%,-5,/,/,?,0.7
CCn1c(CN2CCN(C(c3ccccc3)c3ccccc3)CC2)nc2c1c(=O)n(C)c(=O)n2C,-23%,-14,/,1.3,-3%,2.0
COc1ccc(Cl)cc1C(=O)Nc1cc(=O)n(C)c(=O)n1C,6%,23,-3.5%,-0.1,?,-0.1
O=C(CSc1nc(O)c(Cc2ccccc2F)c(=O)[nH]1)N1CCCCCC1,3%,7,-2.8%,-0.3,-4%,-0.3
Cc1ccc(OCC(=O)N/N=C2/SCC(=O)N2Cc2ccccc2)cc1,2%,6,-1.5%,4.5,0%,3.7
CC1(C)C2CCC1(C)C(OC(=O)CCn1ccnc1)C2 (configuration not stated),7%,17,0.5%,1.1,7%,-0.3
O=C(Cc1ccccc1)NC(NCCc1ccccc1)C(Cl)(Cl)Cl (configuration not stated),-7%,-12,0.3%,5.4,-20%,-0.4
O=c1c2ccccc2nc(COc2ccccc2)n1/N=C/c1ccco1,-16%,3,-2.8%,5.6,-7%,1.2
COc1cc2c(cc1OC)C(CNC(=O)C=Cc1cc(OC)c(OC)c(OC)c1)C2 (configuration not stated),/,-5,4.0%,/,3%,-0.4
CC1CCC(C(C)C)C(=O)/C1=C\c1ccc(NC(=O)CCC(=O)O)cc1 (configuration not stated),-22%,-2,-0.2%,-4.2,?,0.0
Cn1c(SCC(=O)NC2CC2)nnc1-c1cccc(NC(=O)c2ccccc2F)c1,-7%,15,0.8%,-1.4,0%,-0.6
COc1cc(CNC2CCCC2)cc(Br)c1OCC(=O)Nc1ccccc1C,-1%,41,1.1%,-3.0,?,-0.5
CCOC(=O)C1C(=O)C(C(C)=O)C(=O)CC1CC(C)SCC (configuration not stated),-13%,69,0.7%,-1.2,-36%[inhibitor],0.9
COC(=O)c1c(C)oc(C)c1S(=O)(=O)N1CCOCC1,5%,21,-1.0%,1.3,-1%,0.3
O=C(CNC(=O)c1cccc(F)c1)NC1CC1,9%,-11,3.5µM*,/,0%,0.1
CNC(=O)c1ccsc1NC(=O)c1ccc(Cl)s1,-17%,-12,-2.3%,16,22%,-0.5
O=C(Nc1ccc(F)cc1F)C1CCN(S(=O)(=O)c2cccnc2)CC1,9%,2,-1.3%,-1.4,10%,-0.5
COC(=O)C(NC(C)=O)(Nc1ccc(Br)cc1)C(=O)OC,-2%,-9,-0.3%,3.1,3%,-0.1
CC(C)NC(=O)CSc1c2c(nc3ccccc13)CCCC2,0%,-20,/,0.6,2%,0.0
O=C(c1ccccc1)N1CCC(O)(c2cccnc2)CC1,5%,-8,2.4%,2.5,10%,0.3
CCNC(=S)NNc1nc(N2CCCCC2)nc(N2CCOCC2)n1,-6%,0,/,-3.5,-38%[inhibitor],-0.9
CCOC(=O)C(NC(=O)c1ccc(Cl)cc1Cl)(Nc1ccc(C)cc1)C(F)(F)F (configuration not stated),6%,-4,3.1%,1.0,15%,2.0
COc1ccc(S(=O)(=O)N2CCCCC2)cc1NC(=O)Cc1cccs1,3%,-4,-2.2%,/,18%,-0.4
COc1ccc(NC(=O)c2oc3ccccc3c2NC(=O)c2cc3ccccc3o2)cc1,/,-10,-9.4%,/,/,-0.8
N#C/C(=C\c1ccc(N2CCCC2)c([N+](=O)[O-])c1)c1nc2ccccc2[nH]1,13%,6,0.2%,7.2,3%,0.0
CCCCN(CCCC)CCCNC(=O)C1CC(c2ccc(C(F)(F)F)cc2)=NO1 (configuration not stated),-1%,15,0.2%,0.9,/,-0.7

# 6 compounds picked at random from those above:
SMILES,gsp antag,TRPML1 inh,ClpP mod,Menin-MLL FL inh,gsp agonist,TRPML1 ag
CNC(=O)c1ccsc1NC(=O)c1ccc(Cl)s1,-17%,-12,-2.3%,16,22%,-0.5
CCNC(=S)NNc1nc(N2CCCCC2)nc(N2CCOCC2)n1,-6%,0,/,-3.5,-38%[inhibitor],-0.9
COc1ccc(S(=O)(=O)N2CCCCC2)cc1NC(=O)Cc1cccs1,3%,-4,-2.2%,/,18%,-0.4
O=C(c1ccccc1)N1CCC(O)(c2cccnc2)CC1,5%,-8,2.4%,2.5,10%,0.3
CC(C)NC(=O)CSc1c2c(nc3ccccc13)CCCC2,0%,-20,/,0.6,2%,0.0
COc1ccc(NC(=O)c2oc3ccccc3c2NC(=O)c2cc3ccccc3o2)cc1,/,-10,-9.4%,/,/,-0.8
